Screening results (PubChem)
CtBP-E1A inh = qHTS Assay for Inhibitors of the CtBP/E1A Interaction; activity change, % (concentration not given with the values); AID 651724, 2012; AlphaScreen GST-E1A/His-CtBP binding, 1536-well; active compounds read low; control for the full effect not named in the record; 340,000 tested, 0.49% active; in the data active means activity change below about -65%; inconclusive means about -30% to -65%; inactive means above about -30%; further: on the % scale 0 is the no-effect control and ±100 the full control effect
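Homogeneous bead-based format: GST-tagged E1A captured on glutathione donor beads, His-tagged CtBP on nickel acceptor beads; compounds precede bead addition by 2 h at 37 °C.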
Six1-Eya2 blk = qHTS Assay for Inhibitors of the Six1/Eya2 Interaction; Homeobox protein SIX1 (Homo sapiens) + Protein phosphatase EYA2 (Homo sapiens), …; AlphaScreen GST-Six1/His-Eya2 binding, biochemical; active compounds read low; control for the full effect not named in the record; activity change, % (test concentration not listed); 360,000 tested, 0.56% active; AID 651725, 2012; in the data active = activity change below about -65%; inconclusive = about -30% to -65%; inactive = above about -30%; further: on the % scale 0 is the no-effect control and ±100 the full control effect
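Homogeneous AlphaScreen proximity assay pairing GST-Six1 with His-tagged Eya2 (added as 5X mix: 250 nM and 500 nM) in 50 mM Tris pH 8.0, 300 mM NaCl, 1 mM TCEP. Glutathione donor and nickel acceptor beads; 1 h, 37 °C, dark.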
TRPML1 agonist = qHTS for Agonists of the Human Mucolipin Transient Receptor Potential 1 (TRPML1). 410,000 tested, 0.12% active. TRPML1-expressing cells, Ca2+ dye fluorescence, FDSS; host cell line not named in the record; reference of the full effect not given here. AID 624414, 2012. activation, % (concentration not given with the values). Mucolipin-1 (Homo sapiens), Q9GZU1; in the data active = activation above about 50%; inconclusive = about 30% to 50%; inactive = below about 30%; further: 0% is about no effect; the text of the record puts the active cut at 80%
Target sequence (Q9GZU1 whole entry, looked up): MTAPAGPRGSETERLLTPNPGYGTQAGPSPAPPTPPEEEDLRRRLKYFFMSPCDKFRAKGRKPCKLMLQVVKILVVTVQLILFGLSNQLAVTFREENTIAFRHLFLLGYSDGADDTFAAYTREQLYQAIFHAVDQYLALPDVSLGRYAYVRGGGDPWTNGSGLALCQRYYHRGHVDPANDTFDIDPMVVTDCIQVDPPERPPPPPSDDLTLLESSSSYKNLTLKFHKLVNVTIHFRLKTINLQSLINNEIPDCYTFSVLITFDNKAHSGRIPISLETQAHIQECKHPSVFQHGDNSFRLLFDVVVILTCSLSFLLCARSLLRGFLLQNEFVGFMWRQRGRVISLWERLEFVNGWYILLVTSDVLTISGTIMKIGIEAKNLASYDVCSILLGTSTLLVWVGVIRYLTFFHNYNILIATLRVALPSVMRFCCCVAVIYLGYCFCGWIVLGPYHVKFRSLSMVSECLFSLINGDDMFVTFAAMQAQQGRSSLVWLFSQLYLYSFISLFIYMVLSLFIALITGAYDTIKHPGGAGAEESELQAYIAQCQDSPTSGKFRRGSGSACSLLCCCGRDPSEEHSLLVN
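Agonist activity was taken from a 110 s kinetic Ca2+ dye read on the FDSS after pinning compounds onto TRPML1-DL cells. The cells were seeded at 1,500/well with Tet inducer, incubated about 16 h, then dye-loaded at room temperature.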
TRPV1 potentiator = HTS Assay for Compounds that Act as Potentiators of the Vanilloid Receptor 1; potentiation, % at 8.33 µM; AID 540277, 2011; 320,000 tested, 0.02% active; Transient receptor potential cation channel subfamily V member 1 (Homo sapiens), Q8NER1; TRPV1-expressing cells, Fluo-8 calcium influx, capsaicin EC20 potentiation; host cell line not named in the record; control for the full effect not named in the record; active means potentiation above 80%; inconclusive means 30% to 80%; inactive means below 30%; further: 0% is about no effect
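Cells expressing TRPV1 were dye-loaded with Fluo-8 and read kinetically: 10 s baseline, 3 min after compound (agonist portion), then 2 min after EC20 capsaicin (allosteric enhancer portion). Calcium-bound dye fluorescence at 480/520 nm.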
D2 potentiator = Beta-Arrestin HTS for Positive Allosteric Modulators of the Human D2 Dopamine Receptor: Potentiators | D(2) dopamine receptor (Homo sapiens), P14416 | DiscoveRx D2 beta-arrestin cells, luminescence, 90 min; 100% = 57 uM dopamine signal | potentiation, % (no concentration beside the values) | 360,000 tested, 0.23% active | AID 624464, 2012; active = potentiation of 50% or more; inconclusive = 30% to 50%; inactive = 30% or less;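 further: compound concentration not given in the record; tested on top of an EC20 dose of dopamine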
Target sequence (P14416 whole entry, looked up): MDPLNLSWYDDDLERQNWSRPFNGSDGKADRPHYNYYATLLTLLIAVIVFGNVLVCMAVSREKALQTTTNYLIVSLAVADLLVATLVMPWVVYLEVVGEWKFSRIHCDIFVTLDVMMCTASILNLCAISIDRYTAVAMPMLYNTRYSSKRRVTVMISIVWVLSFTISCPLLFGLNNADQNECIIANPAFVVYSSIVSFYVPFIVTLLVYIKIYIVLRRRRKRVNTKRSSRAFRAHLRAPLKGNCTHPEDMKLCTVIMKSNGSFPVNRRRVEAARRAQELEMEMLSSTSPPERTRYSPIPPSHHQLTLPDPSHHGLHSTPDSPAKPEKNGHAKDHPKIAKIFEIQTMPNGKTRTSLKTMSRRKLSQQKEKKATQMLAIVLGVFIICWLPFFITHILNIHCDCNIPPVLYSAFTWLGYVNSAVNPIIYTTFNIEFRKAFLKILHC
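PathHunter beta-arrestin assay in DiscoveRx D2 cells. Compounds were added with an EC20 of dopamine (50 nM final) for 90 min at 37 deg C. Luminescence was read 1 h after detection reagent, with 57 uM dopamine as the EC100 control.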
TRPML1 blocker = qHTS for Inhibitors of the Human Mucolipin Transient Receptor Potential 1 (TRPML1) | AID 624415, 2012 | 390,000 tested, 0.02% active | activity change, negative = inhibition, % (no concentration beside the values) | Mucolipin-1 (Homo sapiens), Q9GZU1 | TRPML1-inducible cells, Ca2+ dye fluorescence, FDSS; active compounds read low; inhibition of EC80 agonist-evoked calcium signal; in the data active means activity change below about -50%; inconclusive means about -30% to -50%; inactive means above about -30%;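 further: stimulus is agonist 54-4 at its EC80 concentration; on the % scale 0 is the no-effect control and ±100 the full control effect; compound concentration not given in the record; the text of the record puts the active cut at -80%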
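TRPML1-DL cells, Tet-induced overnight (~16 h, 37 °C) at 1,500 cells/well, were loaded with Ca8 no-wash dye plus quencher for 45-90 min at room temperature. Compounds were pinned during FDSS kinetic reading; agonist 54-4 at EC80 (4 uM final) then added.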
Active calls of the source: *; ? = inconclusive; nt = no result given; & = joins results of further samples.

SMILES	CtBP-E1A inh	Six1-Eya2 blk	TRPML1 agonist	TRPV1 potentiator	D2 potentiator	TRPML1 blocker
CC1(C(=O)NS(=O)(=O)C2CC2)CCN(C(=O)c2ccc3ccccc3n2)C1 (stereo unspecified)	9	5	-0.2	nt	-4	nt
c1ccc(CCNc2ccc3c(c2)Cc2ccccc2-3)nc1	?	?	-1.1	nt	-5	3
COC(=O)c1ccc(-n2c(C)nc(=O)c(-c3ccccc3)c2C)cc1	10	1	0.0	?	-12	-2
CCCOc1ccc(-c2c(C(=O)N/N=C/c3ccco3)nnn2-c2nonc2N)cc1	4	-4	-0.4	-15	-6	8
NS(=O)(=O)c1cccc(NC(=O)CC2(CC(=O)O)CCCC2)c1	8	-2	-0.1	-4	-2	3
C=CCn1c(SCC(=O)N(CC)c2c(N)n(Cc3ccccc3)c(=O)[nH]c2=O)nnc1-c1ccccc1OC	-2	1	0.0	nt	-2	24
O=C(Nc1ccc(Cl)cc1)Nc1ccc(N2CCCC2)c(S(=O)(=O)Nc2ccccc2Cl)c1	-26	-12	-0.1	6	?	0
COc1ccccc1OCCC(=O)NNC(=O)c1ccccc1F	0	6	-0.1	4	-4	2
CCOc1ccc(CCNC(=O)C2CCN(S(=O)(=O)N3CCOCC3)CC2)cc1OCC	-1	1	-0.9	-1	-5	-1
CSCCC(NC(=O)c1ccccc1Cl)C(=O)NCC(c1ccc(F)cc1)N1CCOCC1 (stereo unspecified)	nt	-2	-0.7	nt	-2	10
CC(C)N1CC(C(=O)Nc2cccc([N+](=O)[O-])c2)CC1=O (stereo unspecified)	nt	6	0.2	12	-3	-11
COC(=O)c1cccc(NC(=O)c2cccc(-n3cnnn3)c2)c1	-10	10	-0.6	nt	-31	4
COc1ccc(S(=O)(=O)N(CCc2ccccc2)CC(=O)N/N=C/c2ccc3c(c2)OCO3)cc1	-11	1	2.6	5	-10	13
COc1ccc(C)cc1NC(=O)CSCc1cc(=O)n2c(C)csc2n1	1	8	-0.3	-1	-6	2
CCN1C(=NCC(C)C)N[C@@H](CCc2ccccc2)[C@H](C(=O)NCC(C)C)[C@H]1C	3	3	-0.5	4&-2	-35	-22
COc1cccc(-c2cnc(C(O)c3cc(C)c(OC)c(C)c3)[nH]2)c1 (stereo unspecified)	-10	-16	-0.3	nt	-6	6
CCOC(=O)C1=C(C)Nc2nnnn2C1c1ccc(OC)c(Br)c1 (stereo unspecified)	-2	-4	1.9	-3	-4	-2
C[C@@H](NC(=O)c1nc[nH]c1C(=O)N[C@@H](CCCCNC(=O)OC(C)(C)C)C(=O)OC(C)(C)C)c1ccccc1	-2	-6	2.4	-4	4	3
O=C(c1cc2cc(Cl)ccc2[nH]1)N1CCN(c2ccccn2)CC1	9	1	-0.1	4	-1	-7
CCOC(=O)c1c(C)[nH]c(C)c1S(=O)(=O)NCCc1sccc1C	nt	-11	3.6	-10	-9	4

A draw from above in order of formula weight, highest first:
SMILES	CtBP-E1A inh	Six1-Eya2 blk	TRPML1 agonist	TRPV1 potentiator	D2 potentiator	TRPML1 blocker
C=CCn1c(SCC(=O)N(CC)c2c(N)n(Cc3ccccc3)c(=O)[nH]c2=O)nnc1-c1ccccc1OC	-2	1	0.0	nt	-2	24
C[C@@H](NC(=O)c1nc[nH]c1C(=O)N[C@@H](CCCCNC(=O)OC(C)(C)C)C(=O)OC(C)(C)C)c1ccccc1	-2	-6	2.4	-4	4	3
O=C(Nc1ccc(Cl)cc1)Nc1ccc(N2CCCC2)c(S(=O)(=O)Nc2ccccc2Cl)c1	-26	-12	-0.1	6	?	0
COc1ccc(S(=O)(=O)N(CCc2ccccc2)CC(=O)N/N=C/c2ccc3c(c2)OCO3)cc1	-11	1	2.6	5	-10	13
CSCCC(NC(=O)c1ccccc1Cl)C(=O)NCC(c1ccc(F)cc1)N1CCOCC1 (stereo unspecified)	nt	-2	-0.7	nt	-2	10
CCCOc1ccc(-c2c(C(=O)N/N=C/c3ccco3)nnn2-c2nonc2N)cc1	4	-4	-0.4	-15	-6	8
CCN1C(=NCC(C)C)N[C@@H](CCc2ccccc2)[C@H](C(=O)NCC(C)C)[C@H]1C	3	3	-0.5	4&-2	-35	-22
CCOC(=O)C1=C(C)Nc2nnnn2C1c1ccc(OC)c(Br)c1 (stereo unspecified)	-2	-4	1.9	-3	-4	-2
COc1ccc(C)cc1NC(=O)CSCc1cc(=O)n2c(C)csc2n1	1	8	-0.3	-1	-6	2
CC1(C(=O)NS(=O)(=O)C2CC2)CCN(C(=O)c2ccc3ccccc3n2)C1 (stereo unspecified)	9	5	-0.2	nt	-4	nt
CCOC(=O)c1c(C)[nH]c(C)c1S(=O)(=O)NCCc1sccc1C	nt	-11	3.6	-10	-9	4
O=C(c1cc2cc(Cl)ccc2[nH]1)N1CCN(c2ccccn2)CC1	9	1	-0.1	4	-1	-7
COc1cccc(-c2cnc(C(O)c3cc(C)c(OC)c(C)c3)[nH]2)c1 (stereo unspecified)	-10	-16	-0.3	nt	-6	6
COC(=O)c1ccc(-n2c(C)nc(=O)c(-c3ccccc3)c2C)cc1	10	1	0.0	?	-12	-2
COc1ccccc1OCCC(=O)NNC(=O)c1ccccc1F	0	6	-0.1	4	-4	2
COC(=O)c1cccc(NC(=O)c2cccc(-n3cnnn3)c2)c1	-10	10	-0.6	nt	-31	4
CC(C)N1CC(C(=O)Nc2cccc([N+](=O)[O-])c2)CC1=O (stereo unspecified)	nt	6	0.2	12	-3	-11
c1ccc(CCNc2ccc3c(c2)Cc2ccccc2-3)nc1	?	?	-1.1	nt	-5	3

(more compounds)
SMILES	CtBP-E1A inh	Six1-Eya2 blk	TRPML1 agonist	TRPV1 potentiator	D2 potentiator	TRPML1 blocker
CC(NC(=O)C1CCCC1)c1ccc(Br)cc1 (stereo unspecified)	nt	2	nt	-15	-15	nt
CCCCN(C(=O)c1c(CC)noc1C)c1c(N)n(CCCC)c(=O)[nH]c1=O	-8	4	0.8	-2	-15	-22
Cc1ccc(/C=N/N2CCN(Cc3ccccc3)CC2)s1	-25	?	1.0	-15	-34	4
NS(=O)(=O)c1ccc(CNC(=O)c2scc3c2CCCC3)cc1	5	19	0.2	1	-10	-3
N#C/C(=C/c1cc(Cl)c(O)c(Cl)c1)C(=O)N1CCCCC1	9	4	0.8	-14	-5	12
CCOC(=O)C1CC(c2ccccc2)=NN1c1ccccc1 (stereo unspecified)	4	111	-0.5	nt	-2	8
COCCNC(=O)c1cc2c(s1)-c1ccc(Cl)cc1SC2	6	9	0.0	1	-21	-4
O=C(COC(=O)c1cccc(Cl)c1)Nc1cc(Cl)ccc1Oc1ccccc1	36	31	4.5	2	-12	47
CCCCNC(=O)C1CCN(c2nc(OC)nc(OC)n2)CC1	-6	2	0.4	18	2	-8
O=C(O)CCC(=O)N1CCc2c([nH]c3ccccc23)C1C(F)(F)F (stereo unspecified)	-1	4	0.5	-2	1	3
COc1cc(C(=O)NCCCNc2nc3cc(C)cc(C)c3cc2C#N)cc(OC)c1OC	-5	-5	-0.3	0	-2	2
COCCCNC(=S)NC(=O)c1ccccc1	2	0	0.2	-5	13	-10
CCC1CCc2c(sc(NC(=O)CSc3nc(-c4ccco4)cc(C(F)(F)F)n3)c2C#N)C1 (stereo unspecified)	1	0	-0.1	0	-7	-10
COc1ccc(NC(=O)N2c3ccccc3C(C)=CC2(C)C)cc1	15	6	0.1	4	-9	-13
CCOC(=O)NC(NC(=O)OCC)C(=O)c1ccc(F)cc1	2	-2	2.5	24	-4	7
Cc1csc2nc(CSc3nncn3-c3ccccc3)c(Br)n12	2	-6	-0.9	0	-22	4
CCOC(=O)[C@]12CCC=C1N(CCC1=CCCCC1)C(=O)[C@H](CC(=O)NCCCOC)C2	2	1	-0.5	nt	nt	nt
Cc1ccc(S(=O)(=O)N2CCN(C(=O)CCC(=O)NCc3ccc(F)cc3)CC2)cc1	15	-19	-0.2	3	-5	5
Cc1nc2sc3c(O)cc(=O)[nH]c3c2c(C)c1C	-1	-1	-0.7	4	-23	-10
O=C(Nc1nnc(SCc2ccc(Cl)cc2)s1)c1cnccn1	-20	-22	0.0	5	-30	-2
CC(C)OCCCn1c(=S)[nH]c2ncccc2c1=O	3	4	0.7	-16	-5	15
O=C(O)c1ccccc1C(=O)c1ccc(Oc2ccccc2)cc1	6	10	0.7	16	1	1
COC(=O)[C@]1(Cc2ccccc2)N[C@H](CN(C)C(=O)NC(C)C)[C@@H]2C(=O)N(Cc3ccccc3)C(=O)[C@@H]21	-18	0	-0.4	nt	-4	9
CCOc1ccc(Br)cc1S(=O)(=O)Nc1cccc(S(=O)(=O)N2CCOCC2)c1	7	9	2.2	nt	0	13
Cc1ccc(NC(=O)COC(=O)c2cc(Cl)ccc2[N+](=O)[O-])cc1	-10	-7	2.1	-17	8	-19
CCS(=O)(=O)N1Cc2ccccc2CC1C(=O)N1CCN(c2ccccc2)CC1 (stereo unspecified)	-6	-4	-1.1	1	-11	-3
O=C(N/N=C/c1ccc([N+](=O)[O-])o1)c1ccccc1NS(=O)(=O)c1cccs1	nt	17	0.5	5	3	-2
COC(=O)C1CCN(C(=O)NC2CCCCC2)CC1	8	3	0.9	-2	-18	1
CCCCCc1ccc(OCCCC[n+]2ccccc2)c(CCCCC)c1	-2	2	-0.7	-11	-13	-3
COc1ccc(Cc2nnc(NC(=O)C(C)(C)C)s2)cc1	-6	-2	0.9	2	-4	5
C[C@H]1CN(CCc2ccccc2)C(=O)[C@@H]1CC(=O)Nc1ccccc1	0	1	0.1	nt	-4	6
Cc1ccccc1C(=O)O/N=C1\CCS(=O)(=O)c2sccc21	-3	-2	-0.2	-10	-23	18
C#CCSc1ncc(S(=O)(=O)c2ccccc2)c(=O)[nH]1	7	7	0.0	-14	4	29
Cc1ccc(/C=C(\NC(=O)c2ccccc2)C(=O)NCC2CCCO2)o1 (stereo unspecified)	nt	8	-0.3	-2	-1	7
